Beta apoptosis: inhibitors of cytokine-induced beta cell apoptosis, primary screen, luminescence; hit rate 0.8% among 300,000; INS-1E cytokine-induced death, ATP luminescence, 48 h; percent of positive-control rescue, neutral wells zero; protection from apoptosis, % (no concentration beside the values);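 active = all replicates at 75% or more, or half of them and the mean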;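 note: 0% = cytokine-treated negative control wells and 100% = positive control rescue; higher means more ATP so stronger rescue from cytokine killing; wells of about 40 µL received 100 nL stock; the first replicate is given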
Ecoli rRNA inh: reduced GFP signal of wild-type E. coli, primary screen, bacterial rRNA inhibitor project, GFP/RFP fluorescence, OD600, single point; GFP signal change (wild-type ribosome), % (test concentration not listed); hit rate 1.6% among 350,000; E. coli WT GFP vs humanized-ribosome RFP mutants, 24 h; active compounds read low; DMSO median 0, no signal -100;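 active = significant combined selectivity score with lowered wild-type GFP, culture density cut under 30%, mutant RFP and density less affected; inactive = any of these conditions unmet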; note: one replicate is shown; some compounds called inactive have numbers as strong as hits
T cruzi inh: inhibitors of intracellular T. cruzi growth, primary screen, luminescence, NIH3T3 host cells | T. cruzi beta-gal in NIH3T3, 90 h | hit rate 1.4% among 300,000 | inhibition, % (no concentration beside the values);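 active = mean inhibition across valid replicates above about 55%, limit read from the data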;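 note: signal also drops with host cell toxicity which is not excluded here; 0% = plate median of DMSO wells and 100% = zero luminescence signal; higher percent means less beta-gal luminescence so fewer parasites; stock transfer was 50 nL into about 50 µL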
FGF22 binding: binders of human FGF22 protein, primary screen, FGF22 synaptogenesis inhibitor project, biophysical, thermal shift, single point | Fibroblast growth factor 22 (Homo sapiens), Q9HCT0 | recombinant FGF22 thermal shift, SYPRO orange fluorescence; percent of sucrose octasulfate shift, DMSO zero | calls only at 9.99 µM | hit rate 1.5% among 340,000;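 active = melting point raised past a set limit in the mean and every replicate; three in four hits are not shown here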
Target sequence (Q9HCT0 whole entry, looked up): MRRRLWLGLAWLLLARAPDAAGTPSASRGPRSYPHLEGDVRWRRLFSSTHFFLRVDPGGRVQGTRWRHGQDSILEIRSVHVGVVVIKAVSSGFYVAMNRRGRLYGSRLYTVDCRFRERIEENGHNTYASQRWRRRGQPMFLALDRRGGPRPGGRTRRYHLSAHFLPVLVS
E coli growth: E. coli growth inhibition, primary screen, OD600. hit rate 0.21% among 330,000. AID 1053175, 2014. Escherichia coli growth, 23 h; active compounds read low. OD600 absorbance (concentration not given with the values);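 active = OD600 absorbance below the run mean of sample wells minus 3.6 SD, in any replicate, cut at about 0.56 in these data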;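 note: stock transfer was 300 nL into about 60 µL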
A1 inh: caspase 3/7 activation in MEF A1-2A-BIM cells, primary screen, A1 inhibitor project, cell-based, luminescence, HTS; hit rate 0.066% among 330,000; AID 2462, 2010; caspase activation, % (no concentration beside the values); Caspase-Glo 3/7 luminescence, 3 h; percent of clofoctol response, vehicle zero;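 active = over half of replicate activation scores above 10%, or exactly half above 10 with the replicate mean above 10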;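 note: wells of about 30 µL received 50 nL stock; many hits fall short of the cut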
UCH37 inh: inhibitors of human UCH37 deubiquitinase, primary screen, biochemical, Ub-AMC cleavage, fluorescence | hit rate 0.33% among 330,000 | purified proteasome/UCH37 | inhibition, % (concentration not given with the values);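 active = mean of two replicates above 20%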;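 note: 0% = compound-free wells with enzyme and 100% = wells lacking proteasome; stock transfer was 100 nL into about 20 µL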
Target sequence (Q9Y5K5 whole entry, looked up): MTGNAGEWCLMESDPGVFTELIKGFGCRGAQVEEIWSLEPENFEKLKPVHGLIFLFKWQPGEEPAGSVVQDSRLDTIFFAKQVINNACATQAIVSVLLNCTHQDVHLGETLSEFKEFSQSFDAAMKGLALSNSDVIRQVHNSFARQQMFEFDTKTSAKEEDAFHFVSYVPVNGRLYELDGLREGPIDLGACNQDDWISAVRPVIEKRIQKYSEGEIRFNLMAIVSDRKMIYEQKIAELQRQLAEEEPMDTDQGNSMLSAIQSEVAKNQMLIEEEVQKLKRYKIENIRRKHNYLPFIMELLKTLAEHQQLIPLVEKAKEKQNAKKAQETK
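Schedule: 30 min plus 25 min, room temperature / Material: human UCH37 within purified proteasomes / Technique: AMC fluorescence intensity at 355/460 nm / Buffer or medium: pH 7.4 Tris-HCl (50 mM) with ovalbumin, ATP-MgCl2, DTT / Controls: wells without proteasome as full block, compound-free enzyme plus substrate as uninhibited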
MLL AF4-AF9 inh: inhibitors of AF4 peptide binding to AF9, primary screen, biochemical, AlphaScreen, biotin-AF4 peptide, FLAG-AF9, single point. hit rate 0.47% among 350,000. Protein AF-9 (Homo sapiens), P42568. AID 651704, 2012. inhibition, % at 10 µM;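 active = every replicate reaching a set inhibition limit, whatever the replicate mean, cut at about 25% in these data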;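 note: 0% = plate neutral control median and 100% = total signal loss; the record names both 10 and 1 µM as test concentration; the first replicate is given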
Target sequence (P42568 whole entry, looked up): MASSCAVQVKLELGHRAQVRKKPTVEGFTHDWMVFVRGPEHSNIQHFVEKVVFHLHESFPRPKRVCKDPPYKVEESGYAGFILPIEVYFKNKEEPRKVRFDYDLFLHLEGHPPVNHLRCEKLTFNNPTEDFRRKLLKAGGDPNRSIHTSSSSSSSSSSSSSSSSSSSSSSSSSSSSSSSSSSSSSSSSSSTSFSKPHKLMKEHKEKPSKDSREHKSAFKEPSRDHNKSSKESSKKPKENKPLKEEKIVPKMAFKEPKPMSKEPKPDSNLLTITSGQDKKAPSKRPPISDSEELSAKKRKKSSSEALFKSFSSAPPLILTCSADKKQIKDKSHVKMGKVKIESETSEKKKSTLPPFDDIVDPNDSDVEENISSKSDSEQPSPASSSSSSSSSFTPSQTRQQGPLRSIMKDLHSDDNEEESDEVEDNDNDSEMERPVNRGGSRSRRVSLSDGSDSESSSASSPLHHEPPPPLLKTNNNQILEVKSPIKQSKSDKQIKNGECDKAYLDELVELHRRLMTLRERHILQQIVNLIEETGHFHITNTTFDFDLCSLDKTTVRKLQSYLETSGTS
Ecoli rRNA inh OD600: second read-out of Ecoli rRNA inh, no call of its own (marks repeat the call); OD600 change, %; measured here: OD600 growth;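 optical density of the mix in the first replicate; 0 = DMSO median and -100 = no signal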
Ecoli rRNA inh RFP: recorded beside Ecoli rRNA inh, whose call it bears; RFP signal change, %; measured here: RFP humanized mutant strains;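 first replicate; 0 = DMSO median and -100 = no signal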
An asterisk follows results filed as active; i = inactive; . = not tested or not shown. An excerpt; count on the stated rates, not on these rows.

Start of the listing, in advance (three entries):
SMILES	Beta apoptosis	Ecoli rRNA inh	Ecoli rRNA inh OD600	Ecoli rRNA inh RFP	T cruzi inh	FGF22 binding	E coli growth	A1 inh	UCH37 inh	MLL AF4-AF9 inh
CN(C)/C=C1\C(=O)N(c2ccc(Oc3ccccc3)cc2)CS1=O (centres undefined)	-8	.	.	.	-9	.	0.67	0.7	-0.5	.
CCN(CC)C(CNC(=O)c1cc(=O)[nH]c2ccccc12)c1ccccc1Cl (centres undefined)	3	9	8	6.9	11	i	0.66	0.5	-20	1.1
CCOc1ccc(NC(=O)CN(C)C(=O)Cc2c(C)nc3ccccc3c2C)cc1OCC	2	3	1	-0.2	-3	i	0.71	-0.7	-0.3	2.9

This part in full, previewed entries included:
SMILES	Beta apoptosis	Ecoli rRNA inh	Ecoli rRNA inh OD600	Ecoli rRNA inh RFP	T cruzi inh	FGF22 binding	E coli growth	A1 inh	UCH37 inh	MLL AF4-AF9 inh
CN(C)/C=C1\C(=O)N(c2ccc(Oc3ccccc3)cc2)CS1=O (centres undefined)	-8	.	.	.	-9	.	0.67	0.7	-0.5	.
CCN(CC)C(CNC(=O)c1cc(=O)[nH]c2ccccc12)c1ccccc1Cl (centres undefined)	3	9	8	6.9	11	i	0.66	0.5	-20	1.1
CCOc1ccc(NC(=O)CN(C)C(=O)Cc2c(C)nc3ccccc3c2C)cc1OCC	2	3	1	-0.2	-3	i	0.71	-0.7	-0.3	2.9
CCCCN(Cc1ccccc1)C(=O)C1CCCN(S(=O)(=O)c2cnc[nH]2)C1 (centres undefined)	0	0	0	-1.6	-10	i	0.74	0.0	2.7	-16
CCOc1ccc(N2C(=O)CN=C2Nc2ccccc2Cl)cc1	-8	.	.	.	-2	.	0.75	0.1	0.1	.
COCCCNc1oc(COc2ccc(Cl)cc2Cl)nc1C#N	-3	.	.	.	18	.	0.73	0.1	1.3	.
O=C(NCC(c1ccco1)N1CCc2ccccc2C1)c1ccccc1Cl (centres undefined)	-8	-16	-14	-4.2	-6	.	0.67	0.1	0.6	-0.9
CCOc1c(O)ccc(/C=C2\SC(=S)NC2=O)c1[N+](=O)[O-]	-8	-38	-60	-8.4	-11	i	0.68	0.0	59*	-5.6
Cn1c(=O)[nH]c(=O)c2c1nc(N1CCOCC1)n2CC(O)COc1ccccc1 (centres undefined)	-3	.	.	.	-28	.	0.74	0.4	-5.0	.
COc1cccc(CN2CCNC(=O)C2CC(=O)N2CCOc3ccccc3C2)c1OC (centres undefined)	.	18	16	5.9	11	i	0.67	0.8	1.3	2.4
Cc1ccc(C(=O)OCC(=O)Nc2cc(C(C)(C)C)no2)c(C)c1	-2	-4	-11	-2.6	.	i	.	0.9	.	1.0
O=C(CC(c1ccccc1)c1cc(Cl)ccc1O)NCCN1CCOCC1 (centres undefined)	-4	-4	-5	0.8	-3	i	0.7	0.6	2.3	3.4
NC(=S)N/N=C/c1coc2cc(Br)ccc2c1=O	-7	8	5	5.1	-26	i	.	1.0	.	1.7
Cc1nnc(SCC(=O)NC(=O)Nc2ccc3c(c2)OCCO3)n1N	-2	6	5	-10	-4	i	0.63	-0.2	0.9	-0.9
COCCNC(=O)CCc1nc2cccnc2n1Cc1ccc(OC)cc1	-5	9	1	0.4	-1	i	0.66	0.0	1.3	-1.9
COc1cccc(OCc2cc(C(=O)N(C)CCC3CCCCO3)no2)c1 (centres undefined)	-8	0	-10	0.5	-7	i	0.73	0.4	2.8	-12
Cc1cccc(OCCCn2c(CCNC(=O)C(C)C)nc3ccccc32)c1	2	.	.	.	13	.	0.7	-0.6	0.6	.
Cc1[nH]c2ccccc2c1/C=N/NC(=O)c1cc(-c2ccncc2)nc2ccccc12	11	3	19	0.1	13	i	.	0.3	.	2.7
CC1CCN(C(=O)c2cc3ccccc3o2)CC1	4	.	.	.	6	.	0.69	-12	3.8	.
CCC(=O)Nc1ccc(NC(=S)Nc2ccccc2)cc1	-1	7	10	0.8	-8	i	0.71	-0.8	1.2	2.4
O=C(/C=C/c1ccc(Cl)cc1)NCCCN1CCOCC1	2	-3	5	4.3	-4	i	0.72	0.4	1.4	2.1
CCn1c(SCC(=O)Nc2ccc3[nH]c(=O)[nH]c3c2)nc2ccccc21	-4	-5	-1	-2.9	.	i	0.69	-0.9	1.8	-0.5
COc1c2c(cc3oc(C)cc(=O)c13)OC(C(C)(C)OC1OC(CO)C(O)C(O)C1O)C2 (centres undefined)	-1	7	13	-6.1	-7	i	0.68	-0.2	-3.8	0.2
CCOc1ccc(NC(=O)c2ccc(CSc3nnnn3C)cc2)cc1	-1	.	.	.	-9	.	0.68	-1.5	-0.2	.
COc1ccc(/C=N/NC(=O)CCN2CCCCC2c2cccnc2)cc1Cn1cc([N+](=O)[O-])cn1 (centres undefined)	1	-4	-7	-5.1	5	i	.	1.0	.	-6.8
O=C(COC(=O)/C=C/c1ccco1)NCc1ccco1	-3	.	.	.	1	i	0.64	-0.5	2.4	-2.2
CCn1c(C)nc2cc(S(=O)(=O)C(F)(F)C(F)C(F)(F)F)ccc21 (centres undefined)	14	.	.	.	-56	i	0.69	-0.8	3.1	-1.7
COC(=O)c1c(C)[nH]c(C(=O)C(C)OC(=O)c2cc(C)oc2C)c1C (centres undefined)	21	3	6	-0.6	.	i	0.68	-0.3	4.6	0.8
CCn1c(O)c(C#N)c(C)cc1=O	-5	25	9	11	-12	i	0.7	-0.1	3.1	0.2
COc1ccc(-c2cc3nc[nH]c(=O)c3s2)cc1	2	.	.	.	-1	.	0.68	-6.5	-323	.
NC(N)=NS(=O)(=O)c1ccc(NC(=S)NC(=O)c2sc3ccccc3c2Cl)cc1	-5	-8	-12	-4.0	8	i	0.69	0.0	6.3	-10
COc1ccc(N2CCN(CCCNC(=O)C3CCCN(S(=O)(=O)c4c(C)n[nH]c4C)C3)CC2)cc1 (centres undefined)	0	0	8	1.7	2	i	0.66	1.3	0.5	7.1
COC(=O)c1cn(-c2ccccc2)nc1-c1ccc(OC)c(OC)c1	-6	-14	-18	0.4	0	i	0.65	0.5	1.1	-1.6
CCCCc1cc(=O)oc2cc(C)cc(OCC(=O)O)c12	-2	.	.	.	-1	.	0.7	-0.2	-280	.
Cc1nn(-c2ccccc2)c(Cl)c1/C=C(\CC(=O)O)c1nc2ccccc2s1	-3	.	.	.	1	.	.	-0.6	4.1	.
COc1ccc2[nH]c3c(c2c1)CCN1C(=O)C(CC(=O)NCCC2=CCCCC2)C[C@H](C(=O)N2CCOCC2)[C@@]31C (some centres undefined)	.	3	-3	-2.8	.	i	0.71	.	-1.1	2.2
O=S(=O)(Cc1ccccc1)N=Nc1c(O)[nH]c2ccc(Br)cc12	-15	.	.	.	-8	.	0.68	0.7	3.9	.
Cn1c(/C=C/c2cccc([N+](=O)[O-])c2)c([N+](=O)[O-])c(=O)n(C)c1=O	-20	5	11	-0.7	-28	i	0.65	-0.8	4.6	-6.6
Cn1ccnc1C1CCCCN1Cc1nc(Cc2ccccc2F)no1 (centres undefined)	-4	11	6	3.1	-9	i	0.7	-0.5	0.9	0.8
CC1(C)Cc2cccc(OCC(=O)NC3CC3)c2O1	.	.	.	.	4	.	0.67	0.1	4.2	.

Structural class, those above with a thiophene ring, fused or not
SMILES	Beta apoptosis	Ecoli rRNA inh	Ecoli rRNA inh OD600	Ecoli rRNA inh RFP	T cruzi inh	FGF22 binding	E coli growth	A1 inh	UCH37 inh	MLL AF4-AF9 inh
COc1ccc(-c2cc3nc[nH]c(=O)c3s2)cc1	2	.	.	.	-1	.	0.68	-6.5	-323	.
NC(N)=NS(=O)(=O)c1ccc(NC(=S)NC(=O)c2sc3ccccc3c2Cl)cc1	-5	-8	-12	-4.0	8	i	0.69	0.0	6.3	-10

Other compounds.
SMILES	Beta apoptosis	Ecoli rRNA inh	Ecoli rRNA inh OD600	Ecoli rRNA inh RFP	T cruzi inh	FGF22 binding	E coli growth	A1 inh	UCH37 inh	MLL AF4-AF9 inh
CC1CCCC(NC(=S)Nc2cccc(S(=O)(=O)N(C)C)c2)C1C (centres undefined)	.	-27	-28	2.9	-2	i	0.71	-0.7	-1.9	2.1
COc1ccc(C2C(=O)c3ccccc3C2=O)c(OC)c1	-7	.	.	.	0	.	0.71	-0.4	2.8	.
O=C(CSc1nnc2ccccn12)Nc1nsc(-c2ccccc2)n1	-12	.	.	.	-2	.	0.66	-0.3	1.6	.
O=C(COc1ccc(Br)cc1)NC1CC1	-10	0	-2	-1.4	2	i	0.67	-0.8	1.8	0.5
CC(C)C(NC(=O)c1cccs1)C(=O)NC1=NCCS1 (centres undefined)	1	.	.	.	-1	.	0.69	1.2	0.2	.
Cc1cc(=O)oc2cc(OCC(=O)NC3CCN(Cc4ccccc4)CC3)ccc12	0	5	1	-0.2	45	i	0.68	0.4	-20	1.7
Cc1ccc(S(=O)(=O)Nc2nc3c(s2)C(=O)CC(C)(C)C3)cc1	-8	-7	-13	-2.8	0	i	0.72	0.4	5.0	-2.1
O=C(Nc1nc2ccccc2s1)C1CCCO1 (centres undefined)	1	-1	3	3.5	-8	.	0.68	-0.4	3.9	.
CCOc1ccc(N(CC(=O)Nc2nccs2)S(=O)(=O)c2c(C)[nH]c(=O)[nH]c2=O)cc1	6	3	13	1.6	0	i	0.66	1.0	1.7	0.2
CSCc1ccc(C(=O)NCc2ccc(F)cc2)cc1	-4	.	.	.	-15	i	0.68	-0.1	3.8	3.6
O=C(NCCc1c[nH]c2ccccc12)C(=O)c1c[nH]c2ccccc12	.	-16	-33	-0.3	19	i	0.7	0.0	6.9	6.2
Cc1ccc(-n2c(=O)cc(N3CCc4ccccc4C3)[nH]c2=O)cc1	5	.	.	.	11	.	0.66	0.4	34*	.
COc1ccc(C(=O)Oc2cc(OC)cc(OC)c2C(C)=O)cc1	-3	5	2	-8.0	-6	i	0.7	-0.6	4.2	-1.0
Cc1ccc(NC(=O)CS(=O)(=O)c2cn(CC(=O)N3CCOCC3)c3ccccc23)cc1	-9	9	7	-0.5	10	i	0.7	0.7	4.2	-8.7
C#CCOc1ccccc1/C=C1/C(=O)ON=C1C	.	12	1	2.7	0	i	0.69	0.5	1.3	-0.5
Cc1ccc(C)c(NS(=O)(=O)c2cc(C(=O)NCc3ccncc3)ccc2C)c1	7	8	-19	4.9	9	i	0.71	0.9	1.4	0.9
COc1ccc(OC)c(/C=C/C(=O)Nc2ccc(OC)nc2)c1	-2	1	6	-1.7	-1	i	0.66	-1.5	-30	3.6
COc1ccc(/C=C/C(=O)OCC(=O)NC2CC2)c(OC)c1	1	4	-1	1.6	.	i	0.69	-2.1	-2.9	-3.7
CCCOc1ccc(C2Nc3cccc4cccc(c34)N2)cc1	1	9	15	-1.3	-17	i	0.7	0.3	1.8	9.4
Cc1nc2ccccc2c(=O)n1Cc1ccco1	-9	19	20	2.0	-9	.	0.67	-0.2	2.4	-0.5
O=C1COc2ccccc2N1Cc1ccc(Cl)cc1	3	-22	-37	-14	5	i	0.65	0.1	-2.1	-1.2

Screening data (PubChem)
